VDR inh: inhibitors of human vitamin D receptor; P11473; VDR-SRC2-3 peptide fluorescence polarization, 2 h; Potency, µM, for inactives: max response, negative = inhibition, usual class: inhibitors; actives 0.93% (n = 400,000); active means well fitted inhibition curve with a large enough effect; inconclusive means small, poorly fitted or top-dose-only effect, or another doubt; inactive means no such curve, though single readings can be large or run the other way; further: series mostly up to about 120 µM
Target sequence (P11473 whole entry, looked up): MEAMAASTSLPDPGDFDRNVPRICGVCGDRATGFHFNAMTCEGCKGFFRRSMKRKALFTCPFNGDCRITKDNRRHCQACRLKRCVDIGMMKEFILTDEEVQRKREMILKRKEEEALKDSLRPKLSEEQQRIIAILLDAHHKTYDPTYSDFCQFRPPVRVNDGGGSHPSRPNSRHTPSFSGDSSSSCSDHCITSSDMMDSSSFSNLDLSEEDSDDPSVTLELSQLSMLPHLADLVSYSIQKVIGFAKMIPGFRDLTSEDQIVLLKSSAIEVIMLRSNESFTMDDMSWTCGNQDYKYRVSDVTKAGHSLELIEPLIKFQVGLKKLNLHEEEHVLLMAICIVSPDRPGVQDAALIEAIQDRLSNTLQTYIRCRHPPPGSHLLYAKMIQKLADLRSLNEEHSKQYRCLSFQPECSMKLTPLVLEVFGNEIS
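VDR–SRC2-3 interaction, FP format. Cmpds 23 nl via pintool, brief spin, 2 h ambient incubation.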
An asterisk follows results filed as active; ? = inconclusive; & = joins results of further samples. On the % scale 0 is the no-effect control and ±100 the full control effect; potency means the concentration at half of the fitted maximal effect. Not all compounds are listed. The share of hits here may be higher or lower than overall.

Compound | VDR inh
CC1CCCCN1C(=O)Nc1cccc(C(F)(F)F)c1 (configuration not stated) | -10%
COc1ccc(OCC(=O)OCc2cc(=O)n3nc(-c4cccs4)sc3n2)cc1 | 12%
C=CCNC(=O)c1onc(CSc2ccccc2C)c1C(=O)O | -7%
O=C(COC(=O)c1ccccc1O)Nc1cc(S(=O)(=O)N2CCCCCC2)ccc1Cl | 29%
Cc1ccc(C(=O)Nc2nc(C)c(C(=O)N(C)C)s2)o1 | -11%
O=C(Cn1nnc(-c2ccncc2)n1)NCCc1ccccc1 | 6%
S=c1[nH]nc(C2CCCCC2)n1/N=C/c1cccs1 | -20%
CCCCC(CCC(=O)Nc1ccc(C(=O)OC)cc1)C(=O)O (configuration not stated) | 4%
Cc1cccc(N2C(N)=NC(N)=NC23CCCCC3)c1 | -25%
CN1CCN(C2CCCCC2NS(=O)(=O)c2ccc(Cl)cc2)CC1 (configuration not stated) | -12%
O=C(NCCN1CCN(c2ccccc2)CC1)c1ccccc1F | -21%
CC(=O)Nc1ccc(NC(=O)C2C3C=CC(C3)C2C(=O)O)cc1 (configuration not stated) | -5%
COc1ccccc1NC(=O)Cn1cnc2c(oc3ccccc32)c1=O | -1%
COc1ccc(OCc2cc(C(=O)N3CCN(CC(=O)N(C)C)CC3)no2)c(Cl)c1 | 3%
Cc1ccc(-c2n[nH]c3c2C(c2cccc(O)c2)N(c2ccc(C(=O)O)cc2)C3=O)cc1 (configuration not stated) | 3%&-28%
Cc1cccc(Cn2cc(S(=O)(=O)c3cccc(C)c3)c(=O)c3cc(F)c(N4CCOCC4)cc32)c1 | 11%
COc1ccc(Cc2nc3ccc(C(=O)N(C)CCCN4CCOCC4)cc3o2)cc1 | -8%
O=C(Nc1nccs1)C1CCCN1S(=O)(=O)c1cccc2cccnc12 (configuration not stated) | ?
COc1ccc2[nH]c(C)c(CCN(Cc3cccs3)C(=S)Nc3ccc(F)cc3)c2c1 | -13%
c1ccc(Oc2nc(Oc3ccccc3)nc(N3CCOCC3)n2)cc1 | -9%
O=C(c1ccc2c(c1)CCN2S(=O)(=O)c1ccc(Cl)cc1)N1CCN(c2ccc(F)cc2)CC1 | -3%
CC(=O)Nc1cccc2cc(O)ccc12 | -11%
Cc1ccc2cc(COC(=O)c3ccncc3)c(=O)[nH]c2c1 | -3%
Cc1ccc(S(=O)(=O)N2CCN(CC(=O)N3CCCC3)CC2)c(C)c1 | -6%
Cc1nc(SCC(=O)Nc2nc3ccccc3s2)c(C#N)c(C)c1C | -6%
C/C=C/C(=O)[C@@H](C)[C@@H](/C=C/C[Si](C)(C)C)C(C)C | 2%
Cc1ccc(NC(=O)CCc2c(C)nn(-c3ccc(N4CCCCC4)nn3)c2C)cc1F | -14%&5%
COc1ccc(C(=O)/C=C\N2CCOCC2)cc1 | -5%
COC(=O)C1=C(C)N(Cc2cccnc2)C(=O)/C1=C\c1sccc1C | -28%
COc1ccc(OC)c(CCNC(=O)c2cc3c(s2)-c2c(C)cccc2OC3)c1 | ?
C=CC[C@@H](CC(=O)NCCO)C(=O)N[C@H](C)COC(=O)[C@@H](CC=C)Cc1ccc(F)cc1 | -5%
O=C(Nc1ccc(-c2ccccc2)cc1)c1ccco1 | 12%
COc1ccccc1CNC(=O)COC(=O)c1ccc(C)c(S(=O)(=O)N2CCCCC2)c1 | 8%
COc1cccc(/C=N/c2sc(Cc3ccccc3)c(C)c2C(N)=O)c1O | -7%
O=C(NCc1ccccc1Cl)[C@@H]1CCCN1S(=O)(=O)c1ccc(Cl)cc1 | -1%
Cc1cccc(-c2noc(-c3cccnc3NCc3ccco3)n2)c1 | -1%
Cc1cc(C)nc(NS(=O)(=O)c2ccc(NC(=O)c3ccc(S(=O)(=O)N4CCOCC4)cc3)cc2)n1 | 2%
CSc1nnc(C)c(=O)n1COC(=O)c1ccc(S(=O)(=O)N(C)C)cc1 | 0%
O=[N+]([O-])c1cc(Cl)c(O)c2ncccc12 | 7%
C=CCn1c(C)cc(C(=O)COC(=O)c2ccc3c(c2)NC(=O)CS3)c1C | ?
COC(=O)c1cnc2c(c(C)nn2C)c1OC | -2%
O=C(CCCN1C(=O)c2cccc3cccc(c23)C1=O)NCc1ccco1 | 9%
Cc1ccc(C(O)CN2C3=NCCCN3c3ccccc32)cc1 (configuration not stated) | -4%
COCCOC(=O)c1c(C)n(C)c2ccc(OC(=O)N3CCOCC3)cc12 | 4%
Cn1cccc1/C=N/NC(=O)c1sc2ccccc2c1Cl | 18%
CC(=O)Nc1cc2c(cc1NC(=O)c1cnccn1)OCCO2 | -16%
COc1ccc(NS(=O)(=O)c2ccc(S(=O)(=O)N3CCCC3)cc2)cc1 | 3%
COc1ccc(C(=O)NCC(C)(C)N2CCOCC2)cc1S(=O)(=O)NCc1ccc(Cl)cc1 | -4%
CCc1ccccc1S(=O)(=O)Cc1ccc(C(=O)NCC2CCCO2)o1 (configuration not stated) | -9%
CCNC(=O)CSC1=N/C(=C\c2ccc(O)c(OCC)c2)C(=O)N1c1ccc(OC(F)F)cc1 | -4%
COc1cc(C(C)=O)ccc1OCC(=O)N1CCc2ccccc2C1 | 3%
O=C1C2CCCCN2C(=O)N1CCCN1CCN(c2ccc(F)cc2)CC1 (configuration not stated) | -10%
CC(C)NC(=O)N(C)C[C@H]1Oc2c(NC(=O)Cc3ccccc3)cccc2C(=O)N([C@H](C)CO)C[C@@H]1C | ?
Cc1ccc(/C=C(\NC(=O)c2ccccc2)C(=O)N2CCCC2C(=O)O)cc1 (configuration not stated) | -9%
COc1ccc(-c2nc(C(=O)Nc3cccc(C(C)=O)c3)nn2-c2ccc(Cl)cc2)cc1 | 8%
O=C(NCC1CCCO1)c1cccnc1Nc1ccccc1F (configuration not stated) | 0%
CCC(=O)NCCc1nc2cc(NC(=O)c3cccc([N+](=O)[O-])c3)ccc2n1C | -16%
CC(C)NC(=O)NC(=O)COC(=O)c1ccc(F)cc1F | 4%
CCN(CC)S(=O)(=O)c1cccc(-c2n[nH]c(=S)n2/N=C/c2ccc(OC)cc2)c1 | -18%
COc1ccc(Cn2c(C(=O)O)c(CNCCc3cc(OC)ccc3OC)c3ccc(C)cc32)cc1 | 6%

An excerpt from above in order of heavy-atom count, lowest first.
Compound | VDR inh
O=[N+]([O-])c1cc(Cl)c(O)c2ncccc12 | 7%
Cn1cccc1/C=N/NC(=O)c1sc2ccccc2c1Cl | 18%
O=C(CCCN1C(=O)c2cccc3cccc(c23)C1=O)NCc1ccco1 | 9%
CCN(CC)S(=O)(=O)c1cccc(-c2n[nH]c(=S)n2/N=C/c2ccc(OC)cc2)c1 | -18%
COc1ccc(C(=O)NCC(C)(C)N2CCOCC2)cc1S(=O)(=O)NCc1ccc(Cl)cc1 | -4%
Cc1cc(C)nc(NS(=O)(=O)c2ccc(NC(=O)c3ccc(S(=O)(=O)N4CCOCC4)cc3)cc2)n1 | 2%
CC(C)NC(=O)N(C)C[C@H]1Oc2c(NC(=O)Cc3ccccc3)cccc2C(=O)N([C@H](C)CO)C[C@@H]1C | ?

(more compounds)
Compound | VDR inh
Cc1ccc(-c2noc(-c3ccc(NCc4ccco4)c([N+](=O)[O-])c3)n2)cc1 | 12%
Cc1cccc(NC(=O)CCn2c(=O)oc3ccccc32)c1 | -23%
CN1CCN(c2ccccc2NC(=O)c2ccc(-c3cccc([N+](=O)[O-])c3)o2)CC1 | -3%
CCN(CC)S(=O)(=O)c1ccc(/C=C/C(=O)OCC(=O)N(C(C)C)C(C)C)cc1 | 7%
O=C(CN1CCN(C2CCCCC2)CC1)c1ccc2cc[nH]c2c1 | 2%
Oc1cccc(CN2CCCCC2)c1 | -5%
CSc1nnc(Cn2c(=O)sc3ccccc32)n1-c1ccccc1C | 50µM*
COc1c(F)c(F)c(C(=O)O)c(Nc2ccc(C)cc2C)c1F | 7%
Cc1ccc(-n2nc(C(=O)O)c(O)cc2=O)cc1 | 8%
CCCCNCCCCOc1ccccc1 | 8%
CCCc1nc(NC(=O)c2ccccc2)nc(NC(=O)c2ccccc2)n1 | -12%
CCCCNS(=O)(=O)c1ccc2nc(-c3cccnc3)cc(C(=O)NC(C)C)c2c1 | -12%&5%
O=C(c1ccco1)N1CCN(CCCCOc2cccc3ccccc23)CC1 | -10%
CC1CCN(C(=O)C2Cc3ccccc3CN2S(=O)(=O)c2ccc(F)cc2)CC1 (configuration not stated) | -4%
Cc1nnc(NC(=O)c2ccc(S(=O)(=O)N(C)c3ccccc3)cc2)s1 | 10%
S=c1[nH]cnc2scc(-c3ccc(Br)cc3)c12 | -12%
CC(Sc1cccc[n+]1[O-])C(=O)Nc1ccc(Oc2ccccc2)cc1 (configuration not stated) | -8%
COc1ccc(Cl)cc1NC(=O)CN1CCN(S(=O)(=O)N2CCCCC2)CC1 | -22%
COc1ccc(C(=O)N2CCC(N3CCN(c4ccccc4)CC3)CC2)cc1 | -9%
CCCCNC(=O)c1cnn2c(C)c(Cc3c(C)cc(C)cc3C)c(C)nc12 | -1%
O=C(NCc1cccnc1)c1ccc(-c2ccccc2[N+](=O)[O-])o1 | 17%
O=C1OCCN1CCNCc1cn(-c2ccc(F)cc2)nc1-c1ccccc1Cl | -11%
Cc1[nH]c(=O)[nH]c(=O)c1NS(=O)(=O)c1ccccc1 | -8%
CCc1cccc(NC(=O)CCc2nc3cccnc3n2-c2ccccc2)c1 | -21%
C=CCOc1cccc(CNn2cn[nH]c2=S)c1 | -7%
CCC(=O)N1CCc2cc(S(=O)(=O)NC(Cc3ccccc3)C(=O)NC3CCCCC3)ccc21 (configuration not stated) | ?
Cc1nc(-c2ccccc2)sc1C1(C)CC(c2ccc([N+](=O)[O-])cc2)=NO1 (configuration not stated) | -16%
O=C(Cc1ccc(Cl)cc1)Nc1ccc2oc(-c3ccccc3F)nc2c1 | -15%
COc1ccc(C2C3=C(CC(C)(C)CC3=O)N(CC(=O)O)C3=C2C(=O)CC(C)(C)C3)cc1OC | 1%
Cn1c(N/N=C\c2cccc(O)c2)cc(=O)n(C)c1=O | 1%
COc1ccc(OC)c(-c2nc3c(C#N)c[nH]n3c2NC2CCCCC2)c1 | 11%
CC1=CC(C)(C)NC(=S)N1C(C)c1ccccc1 (configuration not stated) | -4%
O=C(Nc1nnc(CCS(=O)(=O)c2ccc3ccccc3c2)s1)c1cccs1 | ?
Cc1ccc2nc(N(CCCN(C)C)C(=O)c3ccc(S(=O)(=O)N4CCCCCC4)cc3)sc2c1 | -18%
C(=C\c1ccccc1)/C=N/Nc1nc(N2CCOCC2)nc(N2CCOCC2)n1 | ?
CC(CC(=O)Nc1nccs1)c1ccccc1 (configuration not stated) | -12%
CCOc1ccc(CNC(=O)c2cc3c(=O)n(C)c4ccccc4c3s2)cc1 | -1%
Cc1ccc(N2CC(=O)N(NC(=O)c3sc4nc(C)cc(C)c4c3N)CC2=O)cc1 | -3%
COC(=O)c1c(NC(=O)COC(=O)CNC(=O)C2CCCCC2)sc(C)c1C | -4%
Cc1ccc(C2=Nc3ccccc3NC(C)(c3ccc(C)o3)C2)o1 (configuration not stated) | 9%
Cc1cc(C)cc(NC(=S)NC2CC3CCC(C2)N3Cc2ccco2)c1 (configuration not stated) | -11%
O=C(NNC(=S)Nc1ccccc1)c1cccc(Br)c1 | 5%
O=C(c1ccc2c(=O)n3c(nc2c1)CCCCC3)N1CCCCC1 | -8%
Cc1ccccc1OCCn1c(CCNC(=O)C(C)C)nc2ccccc21 | 9%
COc1ccc(-c2ccc(=O)n(CC(=O)Nc3ccc(C)cc3C)n2)cc1 | 7%
COc1ccc(C(=O)NC2CCN(S(=O)(=O)c3ccc(F)cc3)CC2)cc1 | -3%
Cc1ccc(-c2nnn(CC(=O)N(CC3CCCO3)C(C(=O)NC3CCCC3)c3ccc(O)cc3)n2)o1 (configuration not stated) | -9%
COC(=O)C(C)Sc1nc(NCc2ccccc2)nc(N(C)C)n1 (configuration not stated) | -6%
COc1ccc(Nc2nc(NC(C)(C)C)nc(N3CCOCC3)n2)c(OC)c1 | -14%
COc1nn(CC(=O)N2N=C(C)CC2(O)C(F)F)cc1[N+](=O)[O-] (configuration not stated) | 4%
COc1ccc(NC(=O)CN(C)S(=O)(=O)c2ccccc2)c([N+](=O)[O-])c1 | -1%
COc1cc(Cl)c(C)cc1NC(=O)c1ccc(S(C)(=O)=O)cc1 | 1%
CN(CCC#N)C(=O)COC(=O)c1ccc2c(=O)n3c(nc2c1)CCC3 | -12%
CCSc1oc(-c2ccco2)nc1S(=O)(=O)c1ccc(F)cc1 | -7%
CCOc1ncccc1C(=O)N1CCN(S(=O)(=O)c2ccc(Br)cc2Cl)CC1 | -14%
Cc1ccc(CCNC(=O)CCCn2c(=O)c3cccn3c3ccc(F)cc32)cc1 | -4%
OCCN1CCN(c2nc(-c3ccccc3)c3cc(Cl)ccc3n2)CC1 | 16%
NS(=O)(=O)c1ccc(NC(=O)COC(=O)c2cc([N+](=O)[O-])ccc2Cl)cc1 | -15%
COc1cccc(N2CC(C(=O)N3CCC4(CC3)CC(=O)c3ccccc3O4)CC2=O)c1 (configuration not stated) | 9%
Cn1c2ccccc2c(=O)c2c(=O)n(-c3ccc(F)cc3)c(C3CCCCC3)nc21 | 5%

Additional results
Compound | VDR inh
CCN(CC(=O)Nc1cccc(OC)c1)c1ncnc2sc(C)c(C)c12 | -12%
CNC(=O)CN(c1ccc(F)cc1)S(=O)(=O)c1cc(C)ccc1OC | -18%
COc1cc(/C=C2\C(=N)N3N=C(S(C)(=O)=O)SC3=NC2=O)cc(OC)c1OCCOc1ccccc1C | ?
Cn1c(N)c(C(=O)COC(=O)/C=C/c2ccc(Cl)c(Cl)c2)c(=O)n(C)c1=O | ?

Screens: PubChem, National Center for Advancing Translational Sciences (NCATS)
